Ba CapD inh: inhibitors of Bacillus anthracis CapD enzyme | purified CapD enzyme, fluorescence intensity read-out; hits give low values; some hits fall short of the stated cut | z-score (test concentration not listed) | 0.23% of 140,000 active | AID 492967;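 active = z-score under -4 in either of two replicates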;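 also: stock transfer was 100 nL into about 40 µL; score is relative to mean and spread of the plate; one replicate is shown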
AID504770: growth inhibitors of E. coli YBA685 in a screen for V. cholerae RctB (chromosome II replication) inhibitors; E. coli YBA685 rctB-dependent plasmid, OD600 growth, 3 h; hits give low values; z-score (no concentration beside the values); 0.27% of 130,000 active;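 active = z-score under -2 on both plates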;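 also: wells of about 30 µL received 100 nL stock; score is relative to mean and SD of the test wells; the first replicate is given; strong numbers were not always called active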
The depositor's hits bear a star; / = no result given.

SMILES	AID504770	Ba CapD inh
CN(C)c1ccc(C2CC(c3ccccc3)=NN2C(=O)CCCC(=O)O)cc1 (configuration not stated)	/	0.14
CC1(C)CC(=O)C=C(NCC2CCNCC2)C1	1.9	/
C=CCNC(=O)C1C(=O)Nc2nc3ccccc3nc21 (configuration not stated)	0.2	0.71
O=C(O)CC1(Cc2nc(-c3ccc(Cl)cc3)no2)CCCC1	-0.25	-0.48
Cc1oc(-c2cccc(Br)c2)nc1CN1CCC(C(=O)NC2CCCCC2)CC1	-0.8	-0.27
Cc1cc(O)cc(O)c1C(=O)Cc1cnn(-c2ccccc2)c1	0	/
Cc1ccccc1-n1c(C)cc(/C=C2\NC(=O)NC2=O)c1C	1	0.035
O=C(Nc1ccc2[nH]ncc2c1)/C(=C/c1ccco1)NC(=O)c1ccccc1	-0.3	/
COc1ccc(N2C(=O)CC2(C#N)c2ccc(OCc3ccccc3)cc2)cc1 (configuration not stated)	-0.45	-0.11
O=C1c2ccccc2C(=O)N1CCSc1ncccn1	0.55	/
COc1cccc(NC(=O)NCc2ccccc2)c1	0.15	0.61
CCC(=O)Nc1ccc(-c2nc3ccccc3[nH]2)cc1	-0.65	84
CN(C(=O)C1CCCCN1S(=O)(=O)c1ccccc1)c1ccccc1 (configuration not stated)	0.15	/
COc1cc(C2=NNC(=O)CC2)cc(OC)c1OC	/	-0.14
N#CC(C#N)=Cc1ccc(-c2cccc(C(F)(F)F)c2)o1	0.95	/
CC(C)(C)C(=O)NCc1nc2ccccc2[nH]1	2.4	-1.1
Cc1cc2c(c(=O)n1CCN1CCOCC1)C(c1cccc(F)c1)C(C#N)=C(N)O2 (configuration not stated)	-0.45	-0.47
CCOc1ccc(C(=O)Nc2cc(C)nn2-c2nc3ccccc3n2Cc2ccc(C#N)cc2)cc1	1	/
COc1cc(OC)c(CN2CCC(NC(=O)Cc3nc(-c4ccccc4)sc3C)C2)c(OC)c1 (configuration not stated)	/	2.8
Cc1cc(C)nc(NS(=O)(=O)c2ccc(NC(=O)c3cc4ccccc4oc3=O)cc2)n1	/	0.03

Copied from the listing for reference:
SMILES	AID504770	Ba CapD inh
COc1cc(C2=NNC(=O)CC2)cc(OC)c1OC	/	-0.14
N#CC(C#N)=Cc1ccc(-c2cccc(C(F)(F)F)c2)o1	0.95	/
CC(C)(C)C(=O)NCc1nc2ccccc2[nH]1	2.4	-1.1
Cc1cc2c(c(=O)n1CCN1CCOCC1)C(c1cccc(F)c1)C(C#N)=C(N)O2 (configuration not stated)	-0.45	-0.47

Next section
SMILES	AID504770	Ba CapD inh
CCN(C(=O)c1c(Oc2ccc(F)cc2)nc(C)c(Cl)c1C)c1ccccc1	-0.15	0.025
CC1C/C(=C/c2ccsc2)C(=O)/C(=C/c2ccsc2)C1 (configuration not stated)	0.35	-1.1
FC(F)(F)c1cc(Br)ccc1N=Cc1ccccc1	-0.4	-0.95
CCC(NC(=O)c1ccccc1NC(=O)c1ccco1)C(=O)NC1CCCCC1 (configuration not stated)	-0.75	/
N#Cc1cnc2c(-c3ccccc3)c(COc3ccccc3)nn2c1N	0.95	-0.43
Cc1c(CCC(=O)NCc2ccccc2)c(=O)oc2cc(O)ccc12	1.9	79
CCN(CC)c1ccc(N2C(=O)/C(=C/c3ccc(OC)c(Br)c3)C=C2c2ccccc2)cc1	/	0.59
COC(=O)c1ccc(C2Oc3c(OC)cccc3C3CC(c4cccc(OC)c4)=NN32)cc1 (configuration not stated)	/	-0.15
Cc1nn(-c2nc(-c3ccc(Cl)c(Cl)c3)c(Cl)s2)c(C)c1Cl	/	0.14
CC(C)CNC(=O)C(C)Oc1ccccc1 (configuration not stated)	0.5	0.54
O=C(CN1CCCCCC1)Nc1nncs1	-0.7	-0.35
O=C(NCCNCC(O)COc1ccc(O)cc1)N1CCOCC1 (configuration not stated)	/	0.015
C=CCC(=O)c1sc(NC)c(C#N)c1N	-0.5	-1
CCOc1ccc(NS(=O)(=O)c2cnc[nH]2)cc1	0.4	-0.23
O=C(O)CCc1ccc(-c2ccc(F)cc2)n1NC(=O)c1ccco1	-0.4	0.015
COc1ccc(C(=O)C(C)Sc2nnc(-c3cccc(C)c3)n2Cc2ccco2)c(OC)c1 (configuration not stated)	-0.2	/
CN(C)C(/C=C/Nc1cc(C(F)(F)F)cc(C(F)(F)F)c1)=C(C#N)C#N	/	-2.2
CC1CN(c2ncc(/C=N/NC(=O)c3ccccc3O)s2)CC(C)O1 (configuration not stated)	/	3.7
Cc1cc2nc3s/c(=C\c4ccc(N(C)C)c(Br)c4)c(=O)n3c2cc1C	/	-0.43
CCOC(=O)NC(=S)NN	/	0.015
CC(C)c1ccc(/C=N/NC(=O)N/N=C/c2ccc(C(C)C)cc2)cc1	/	0.14
CC(C)(C)c1cc([N+](=O)[O-])c2cc(C(C)(C)C)cc([N+](=O)[O-])c2c1	/	0.65
COc1ccc(-c2c(C(F)(F)F)oc3c(CN4CCCC4)c(O)ccc3c2=O)cc1OC	/	-0.64
CC(C)(C)NC(=S)Nc1cccc(Cl)c1	-0.55	0.42
O=C(CSc1nc2ccc(NC(=O)c3ccccc3F)cc2s1)NC1CC1	0	5.4
CCOC(=O)c1cc(C)n(-c2ccc(Cl)cc2)c1C	/	-0.42
COc1ccc(N2CCN(C(=O)CCc3nc4ccccc4n3C)CC2)c(OC)c1	/	0.6
CCCCCCCCOc1ccc(C=C2c3cc([N+](=O)[O-])cc([N+](=O)[O-])c3-c3c2cc([N+](=O)[O-])cc3[N+](=O)[O-])cc1	/	0.08
COC(=O)CN1C(=O)C2(C(C(=O)OC)=C(N)Oc3c2c(=O)oc2ccccc32)c2ccccc21 (configuration not stated)	0.3	-0.015
COc1ccccc1OC(=O)Nc1ccccc1	-0.35	-0.14
O=C(NCc1nc(-c2ccc(C(F)(F)F)cc2)no1)c1ccccc1	-0.75	-0.89
O=C(Nc1c2c(nn1-c1ccc([N+](=O)[O-])cc1)CSC2)c1cc(Br)ccc1Cl	/	-0.77
CCOC(=O)c1s/c(=N\C(=S)NC(=O)CN2C(=O)CCC2=O)n(C)c1C	0.85	/
CN(C)CCNC(=O)c1ccc(/C=N/O)nc1	0.35	0.03
COc1cccc(COC(=O)NC(Cc2c[nH]c3ccccc23)C(N)=O)c1 (configuration not stated)	/	-0.77
COc1ccccc1C(=O)NC(=O)CSc1nncn1C(C)C	-0.45	/
COC(=O)CCn1cnc(-c2ccccc2)c1-c1ccccc1	0.25	-0.32
CCc1c(C(C)=O)oc2ccc3c(C)cc(=O)oc3c12	/	-0.05
CC1CCc2c(sc(NC(=O)CCN3CCOCC3)c2C#N)C1 (configuration not stated)	-0.25	/
CCN(CC)P(=O)(c1nccn1C)N(CC)CC	1.2	/
Cc1cc(-c2ccc(C(C)C)c(S(=O)(=O)N3CCN(c4ccccc4F)CC3)c2)on1	1.1	-0.81
NC(=O)c1sccc1NC(=O)CSCc1ccc(Cl)cc1	1.1	0.27
O=C(Nc1nnc(COc2ccc(Cl)cc2)s1)c1cc(S(=O)(=O)N2CCOCC2)ccc1Cl	/	-0.48
CSc1cccc(C(=O)Nc2cc(C)on2)c1	-0.85	/
Cc1nn(-c2ccccc2)c2c1CC1(C(=O)c3ccccc3C1=O)C1CCCN21 (configuration not stated)	0.7	/
O=C1N=c2ccccc2=C1c1[nH]c(=S)n(-c2ccccc2)c1O	-0.25	0.3
Cc1ccccc1-c1nc(NC(=O)CSc2ncnc3sc4c(c23)CCC(C)C4)ns1 (configuration not stated)	-0.25	0.7
Cc1ccc(-n2sc3c(c2=S)-c2cc(Br)ccc2NC3(C)C)cc1	/	-0.2
CC(C)OC(=O)c1nnn(-c2nonc2N)c1CN1CCN(c2ccc(F)cc2)CC1	/	-0.29
Cc1ccn2c(NC(=O)c3cccc(Br)c3)c(-c3ccccc3)nc2c1	/	-0.81
Cc1ccc(C(=O)CC(C(=O)O)n2ccc(C)n2)cc1 (configuration not stated)	-0.75	-0.29
Brc1ccc2c(c1)c1nc3ccccc3nc1n2CCc1ccccc1	/	0.76
COc1ccccc1OCC(=O)Nc1cccc(C)n1	-0.4	/
CC1CCCCN1C(=O)CCS(=O)(=O)c1cccc2nonc12 (configuration not stated)	/	0.69
O=S1(=O)CCC(NC(=S)N2CCOCC2)C1 (configuration not stated)	0	0.58
CCc1ccc(OCc2nnc(SC(C)C(=O)OC)n2C)cc1 (configuration not stated)	-0.4	/
COc1ccccc1OCCn1c(C2CC(=O)N(c3cccc(SC)c3)C2)nc2ccccc21 (configuration not stated)	1.5	-0.34
CC(Cn1c(C(C)C)nc2ccccc21)C(=O)O (configuration not stated)	2.1	-0.51
CSC(=CC(=O)C(C)(C)C)SC	0	-1.5
N=C(N)SCc1cn2ccccc2n1	0.75	0.52

Later entries
SMILES	AID504770	Ba CapD inh
Cc1oc2c(c1C(=O)NCc1ccccc1)C(=O)c1ccccc1C2=O	-1.1	-0.05
CCc1ccc(S(=O)(=O)c2c(C(=O)c3ccccc3)cnc3cc4c(cc23)OCCO4)cc1	-0.35	3.3
Cc1ccc(C)c(S(=O)(=O)Nc2cc3c(C(=O)OC(C)C)c(C)oc3c3ccccc23)c1	/	-0.76
CC(=O)N1CCN(CCN2C(=O)C3C4c5ccccc5C(c5ccccc54)C3C2=O)CC1 (configuration not stated)	-0.25	/
COC(=O)c1c2c(nc3ccccc13)CCCC2	1.6	-0.065
O=C(c1c(Cl)cccc1Cl)N1CCN(c2cccc3[nH]ccc23)CC1	-0.15	0.7
Cc1ccc(C)c(N2CCN(C(=O)c3c[nH]c4ccc(S(=O)(=O)N5CCOCC5)cc4c3=O)CC2)c1	/	0.64
CCOC(=O)CSc1nc(N)c2c3c(sc2n1)CCC3	0.4	0.37
O=C(CSc1nc2ccccc2c(=O)n1Cc1ccco1)N(c1ccccc1)c1ccccc1	0.9	/
COc1ccc(C2(C(=O)N3CCCC3)CCOCC2)cc1OC	/	-0.29
COc1ccc2cc(C(=O)OC(C)C)sc(=O)c2c1OC	0.1	0.33
O=c1[nH]ccn1Cc1ccccc1	/	0.42
COC(=O)C1=C(C)NC2=C(C(=O)CC(C)(C)C2)C1c1cnc[nH]1 (configuration not stated)	-1.6	19
NNC(=O)c1snnc1-c1ccccc1	/	0.065
CCOc1ccc(C2c3c(oc4ccc(C)cc4c3=O)C(=O)N2CCN(CC)CC)cc1OC (configuration not stated)	-0.6	/
CSc1cccc(NC(=S)NC(C)(C)C)c1	0.6	-0.31
O=C1CCCN1CCC1CCN(C(=O)Nc2ccccc2)CC1	-0.85	-0.14
COc1ccccc1N1CCN(c2ncnc3sc(C(=O)NCc4ccccn4)c(C)c23)CC1	/	-0.15
CN1CCN(c2nc3c(=O)[nH]c(N)nc3n2C2OC(CO)C(O)C2O)CC1 (configuration not stated)	/	0.13
CN1CCN(C(=O)C(F)(F)C2(F)OC(F)(F)C(F)(F)C2(F)F)CC1 (configuration not stated)	2.1	/
COc1cc2c(cc1OC)C(c1ccccc1)CC(=O)N2 (configuration not stated)	2.2	0.12
COC(OC)c1ccnc(-c2ccc(I)c(F)c2)n1	/	-0.21
COC(=O)c1ccc2c(=O)[nH]c(COC(=O)c3sc4nc5n(c(=O)c4c3C)CCC5)nc2c1	-0.7	/
CCOc1ccc(C2C(N3C(=O)c4ccccc4C3=O)C(=O)N2c2ccc(OC)c(Cl)c2)cc1 (configuration not stated)	/	-0.23
COc1ccc(NC(=O)c2csc3c2CCCC3)cc1	0.7	-0.15
CC(C)(C)C(=O)Nc1cccc(C(F)(F)F)c1	/	-0.46
Cc1cc(NC(=O)NC(=O)c2ccc(F)cc2)n[nH]1	-0.15	0.88
S=C(NCCc1ccc(Cl)cc1)NCc1ccco1	-0.85	0.32
CCOC(=O)N1CCC(NC(=O)c2snnc2C)CC1	0.75	0.66
COc1ccc(-c2cc3n(n2)CCc2nc4ccccc4n2-3)cc1	-0.8	/
COC(=O)C1(OC)C(C(=O)c2ccc(Cl)cc2)=C(OC)C(=O)N1c1ccccc1 (configuration not stated)	/	-0.12
C=C(C)Cn1c(C(C)NC(=O)COC)nc2ccccc21 (configuration not stated)	-0.95	-0.4
O=C(c1cc2ccccc2o1)N1CC=C(c2ccccc2)CC1	-0.25	0.35
CNC(=O)CSc1c(-c2cccs2)[nH]c2ccccc12	-1.1	5.4
Nc1nnc(CSc2cccc3cccnc23)o1	-0.2	29
COc1ccc(C(=O)c2sc3nc4c(c(-c5ccco5)c3c2N)CCC4)cc1	/	0.36
CC(C)C(=O)Nc1csc(C(F)(F)F)c1-c1ccccc1	-0.45	-0.09
CN1CCN(CC(=O)N2c3ccccc3C=Cc3ccccc32)CC1	/	0.56
OC1(C(F)(F)F)CC(c2cccs2)=NO1 (configuration not stated)	-0.65	-0.23
COc1ccc(/C=C(\C#N)c2cccs2)c(OC)c1OC	/	-1.5
COc1cc(N)ccc1-n1c(C)ccc1C	1.1	/
CS(=O)(=O)N(CC(=O)Nc1cccnc1)c1ccc(Cl)cc1	0.95	/
CCc1cccc(CC)c1N(COC)C(=O)CSc1nc2ccccc2[nH]1	-0.3	0.11
O=C(CCc1ccc2c(c1)OCO2)NNC(=O)c1ccc2nsnc2c1	/	-0.06

Screening results deposited in PubChem by ICCB-Longwood Screening Facility, Harvard Medical School.

Some of the compounds tested; the hit share may differ from the screen's.
